Assay outcomes from PubChem BioAssay.
TRPV1 PAM: enhances activation of the human vanilloid receptor TRPV1; Q8NER1; potentiation, % at 8.33 µM; TRPV1-expressing cells, Fluo-8 calcium influx, capsaicin EC20 potentiation; host cell line not named in the record; control for the full effect not named in the record; AID 540277; 320,000 compounds, 0.02% hits; active means potentiation above 80%; inconclusive means 30% to 80%; inactive means below 30%; note: 0% is about no effect
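Fluo-8 calcium influx in TRPV1-expressing cells, kinetic read (ex 480/em 520 nm). Compound added and read 3 min for agonist activity, followed by capsaicin at EC20 final and 2 min further read for enhancement.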
D2 potentiator: potentiates the human D2 dopamine receptor allosterically. P14416. DiscoveRx D2 beta-arrestin cells, luminescence, 90 min; 100% = 57 uM dopamine signal. potentiation, % (concentration not given with the values). 360,000 compounds, 0.23% hits. AID 624464; active = potentiation of 50% or more; inconclusive = 30% to 50%; inactive = 30% or less;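 note: tested on top of an EC20 dose of dopamine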
Target sequence (P14416 whole entry, looked up): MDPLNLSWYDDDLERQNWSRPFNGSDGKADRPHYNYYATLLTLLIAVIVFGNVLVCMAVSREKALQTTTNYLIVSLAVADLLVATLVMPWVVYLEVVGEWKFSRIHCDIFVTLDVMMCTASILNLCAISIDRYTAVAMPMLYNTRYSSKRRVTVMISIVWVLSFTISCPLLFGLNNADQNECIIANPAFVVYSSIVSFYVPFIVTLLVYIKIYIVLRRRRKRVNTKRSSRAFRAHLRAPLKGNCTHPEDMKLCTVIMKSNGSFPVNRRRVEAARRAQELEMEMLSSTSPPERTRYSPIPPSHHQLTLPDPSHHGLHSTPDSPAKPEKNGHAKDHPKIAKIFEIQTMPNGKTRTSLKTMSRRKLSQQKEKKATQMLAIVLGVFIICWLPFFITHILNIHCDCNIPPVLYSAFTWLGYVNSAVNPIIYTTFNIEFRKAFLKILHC
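PathHunter D2 cells, attached overnight at 37 deg C, received compound in DMSO plus dopamine at EC20 (50 nM final) for 90 min at 37 deg C. Beta-arrestin recruitment was read as luminescence after 1 h with detection reagent at ambient temperature.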
D2 agonist: human D2 receptor agonism in beta-arrestin assay; 360,000 compounds, 0.084% hits; activation, % (test concentration not listed); DiscoveRx PathHunter D2 beta-arrestin, luminescence, 90 min; 100% = 57 uM dopamine signal; P14416; in the data active = activation above about 40%; inconclusive = about 15% to 40%; inactive = below about 15%; note: compound concentration not given in the record; the text of the record calls up to 30% inactive
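DiscoveRx PathHunter D2 beta-arrestin cells (2,100/well) attached overnight, then compound-stimulated 90 min at 37 C in HBSS/10 mM HEPES/0.1% Tween-20 buffer; beta-galactosidase complementation read by luminescence after 1 h at ambient temperature. Dopamine 57 uM final (EC100) as control.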
Sfp inh: blocks B. subtilis Sfp PPTase activity; Q9F4F7; AID 1490; Biochemical Sfp PPTase activity, qHTS; 310,000 compounds, 3.5% hits; Potency, µM, for inactives: max response, negative = inhibition, actives largely listed as inhibitors; active = well fitted inhibition curve with a large enough effect; inconclusive = small, poorly fitted or top-dose-only effect, or another doubt; inactive = no such curve, though single readings can be large or run the other way;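 note: the enzyme is Sfp with the accession as filed and its product quenches rhodamine fluorescence; potency is the fitted concentration of half-maximal effect; 0% = enzyme reaction without inhibitor and -100% = no enzyme wells; top concentration of the series not given in the record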
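Reaction rates are the 30-min fluorescence difference (ex 525, em 598 nm) in wells containing 15 nM Sfp, 5 uM rhodamine-CoA and 12.5 uM BHQ-2-YbbR at pH 7.6 with 10 mM MgCl2.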
CtBP-E1A inh: blocks the CtBP interaction with E1A; AlphaScreen GST-E1A/His-CtBP binding, 1536-well; stronger effect = lower value; control for the full effect not named in the record; activity change, % (concentration not given with the values); 340,000 compounds, 0.49% hits; AID 651724; in the data active means activity change below about -65%; inconclusive means about -30% to -65%; inactive means above about -30%; note: % is set by controls: 0 for no effect and ±100 for the full control effect
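Protein mix (5X: 125 nM each GST-E1A, His-CtBP) was incubated with pinned compound 2 h at 37 deg C in dark, in 50 mM Tris pH 8.0 buffer with 300 mM NaCl. Glutathione donor and nickel acceptor beads followed; AlphaScreen signal read after 1 h.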
Six1-Eya2 blk: inhibitors of human Six1/Eya2 interaction. Q15475+O00167. AlphaScreen GST-Six1/His-Eya2 binding, biochemical; stronger effect = lower value; control for the full effect not named in the record. activity change, % (test concentration not listed). 360,000 compounds, 0.56% hits. AID 651725; in the data active = activity change below about -65%; inconclusive = about -30% to -65%; inactive = above about -30%; note: % is set by controls: 0 for no effect and ±100 for the full control effect
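AlphaScreen with GST-Six1 and His-Eya2 (5X mix: 250 nM and 500 nM), glutathione donor and nickel acceptor beads; buffer 50 mM Tris pH 8.0, 300 mM NaCl, 1 mM TCEP; 1 h at 37 C in the dark.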
PINK1 modulator: modulators of PINK1 expression; PINK1 immunofluorescence, high-content cytometry, 24 h; 410,000 compounds, 0.2% hits; Potency, µM (highest dose often 76.6 µM), for the others: top-dose activation (PINK1 increase), hits mostly activators; active = well fitted activation curve with a large enough effect; inconclusive = small, poorly fitted or top-dose-only effect; inactive = flat fitted curve, though single readings scatter; cell line not stated here;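 note: potency is the fitted concentration of half-maximal effect; % of control where 0% means no effect; nearly all actives have a fitted effect of over 65% in size; a mitochondrial uncoupler was the plate control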
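A stable cell line was treated with compounds at 5 concentrations for 24 hours, with CCCP as control. PINK1 levels and mitochondrial localization were measured by immunofluorescence with mitochondrial, cell and nuclear markers after fixation, read by laser-scanning cytometry.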
An asterisk follows results filed as active; u = inconclusive; x = no result given; [ ] = dose if it differs, or a comment.

SMILES | TRPV1 PAM | D2 potentiator | D2 agonist | Sfp inh | CtBP-E1A inh | Six1-Eya2 blk | PINK1 modulator
Cc1cc(C)c(S(=O)(=O)Nc2ccccc2C(=O)N2CCOCC2)c(C)c1 | 0.5 | -4.9 | -4.7 | 2.3% | 0.8 | 2.2 | -0.1%
CC(C)(C)NC(=S)NCCc1ccccc1 | -27.2 | -15.5 | -1.6 | -13.4% | -4.3 | -11.1 | 2.7%
Cc1ccc(C)c(S(=O)(=O)N2CCN(C(=O)Cn3[nH]c(=O)c4ccccc4c3=O)CC2)c1 | -4.6 | -6.8 | -3.3 | x | 2.4 | -8.0 | -1.7%
COc1ccc(OC)c(S(=O)(=O)NC2CCCCC2)c1 | -30.8 | -8.8 | -2.5 | 10.6% | 2.5 | 1.7 | u
Cc1cc(C)c(S(=O)(=O)/N=C2/C=C(SCC(=O)O)C(=O)c3ccccc32)cc1C | 26.0 | -11.2 | 9.6 | 22.4µM* | -21.9 | -22.0 | 13.0%
CCOC(=O)c1sc(NC(=O)Cn2nnc3sc4c(c3c2=O)CCC(C(C)(C)C)C4)nc1C (stereo not given) | 10.0 | -3.3 | -10.8 | 1.2% | -0.1 | -15.0 | 2.5%
C=CCNc1ncnc2c1ncn2[C@H]1CN(C2CCCC2)C[C@@H](CO)O1 | x | -10.2 | -2.4 | x | 6.0 | 5.5 | -0.1%
CCCN=C1N(C)C[C@@H]2[C@@H]3C(=O)N(C)C(=O)[C@@H]3[C@](Cc3ccccc3)(C(=O)OC)N12 | x | -5.5 | -1.2 | x | 11.9 | 8.5 | -1.0%
COC(=O)C(Cc1cnc(Cl)s1)(C(=O)OC)c1ccccc1[N+](=O)[O-] | -10.3 | -16.0 | -2.7 | 0.8% | -9.6 | -5.7 | -0.4%
Cc1ccc(CNc2ccc(CNc3ncn[nH]3)cc2)cc1 | 7.9 | -18.0 | -2.6 | 0.4% | -0.7 | -11.8 | 3.0%[38.3 µM]
CCOC(=O)C1(C)CCCN(C(=O)c2ccc3c(c2)OCO3)C1 (stereo not given) | x | 2.9 | -1.3 | x | 27.9 | 0.0 | 0.6%
OC(c1ccccc1)c1nc(-c2ccccc2)cs1 (stereo not given) | x | -2.0 | 6.4 | x | 2.4 | 10.0 | 4.8%
COc1cc(C)c(CNc2cccc(C)c2)cc1C | 7.5 | -1.1 | 1.1 | u | -4.4 | -11.8 | x
Cc1cc(C)n2nc(C(=O)Nc3nccs3)nc2n1 | -9.6 | 5.9 | -1.7 | -7.0% | 4.5 | -7.9 | u
O=C1/C(=C\c2ccc(O)c(O)c2)N=C2CCCCCN12 | -20.5 | -1.9 | 4.6 | 56.2µM* | -4.4 | -8.8 | 0.1%
O=C(O)CCCC(=O)Nc1cccc(C(=O)Nc2ccccc2C(=O)O)c1 | -5.3 | -1.1 | -2.3 | 19.1% | 0.8 | -9.9 | 0.5%
O=C1CSC(=Nc2cccc([N+](=O)[O-])c2)N1 | 19.4 | -11.4 | -6.2 | 7.6% | x | 0.3 | 3.7%
COc1ccc(S(=O)(=O)N2CCOCC2)cc1NC(=O)CN1CCCCCC1 | -3.4 | -1.8 | -1.4 | 8.9% | 13.5 | 4.5 | 0.4%
Cc1sc2nc(CSCC(=O)N(CCC#N)c3ccccc3F)[nH]c(=O)c2c1C | 7.2 | 11.8 | 0.0 | x | 0.8 | -8.8 | -1.2%
Cc1nnc(NC(=O)c2cccc(F)c2)s1 | 3.2 | -16.7 | -3.3 | 19.3% | -4.2 | -1.3 | -0.7%
CCOC(=O)n1c(=O)n(C)c2ccc(Br)cc21 | 11.6 | -4.0 | -5.0 | 14.1% | -18.7 | -23.6 | -0.4%
O=C(OCc1cc2ccccc2[nH]c1=O)c1ccncc1 | 8.7 | u | 1.5 | 11.7% | 9.6 | 2.0 | 0.8%
Cc1cccc(N2CCN(C(=O)c3cc(S(=O)(=O)N4CCOCC4)cn3C)CC2)c1C | -3.4 | -4.5 | -0.5 | 6.3% | 2.0 | -1.3 | 1.0%
c1ccc2c(CCNc3ncnc4nc[nH]c34)c[nH]c2c1 | u | 0.4 | 13.3 | -10.1% | 4.7 | -3.7 | 0.1%
O=C(O)Cc1cn(Cc2cccc(Cl)c2)c2ccccc12 | -13.6 | -9.9 | -2.1 | 5.0% | x | 17.6 | 0.0%
COCCN1C2=C(C(=O)CC(C)(C)C2)C(c2ccc(OC)c(OC)c2)C2=C1CC(C)(C)CC2=O | -1.0 | 6.2 | 4.6 | 13.2% | -7.3 | 2.3 | -0.6%
CC[C@@]12C(=O)N(c3cccc(C)c3)C(=O)N1[C@H](c1ccc(OC)cc1)[C@@H]1C(=O)N(C(C)(C)C)C(=O)[C@@H]12 | 6.2 | -11.7 | -2.6 | 6.2% | 0.4 | -6.7 | -0.9%
O=C(CCn1c(=S)oc2ccccc21)Nc1cc([N+](=O)[O-])ccc1F | -2.3 | -6.9 | -2.8 | 5.4% | x | -9.3 | 0.7%
CC1CCCC(C)N1CCCNC(=O)C1CCCN(c2ncnc3c2nc2n3CCCCC2)C1 (stereo not given) | -7.0 | -4.5 | -3.9 | 16.9% | -16.3 | 4.7 | 0.7%
C[C@H](NC(=O)c1ccccc1Cl)C(=O)OCc1cn2cc(Cl)ccc2n1 | -8.6 | -18.5 | 1.9 | x | 5.9 | 1.4 | -1.6%
COc1ccc(S(=O)(=O)N2CCN(C(=O)NCc3ccc(OC)c(OC)c3)CC2)cc1 | -15.2 | -6.2 | -1.3 | 13.8% | 1.6 | -8.3 | 2.9%
COC(=O)c1ccccc1NC(=O)CN1C(=O)c2ccccc2C1=O | x | -3.1 | -2.2 | x | 2.0 | 0.7 | 0.4%
COCCNC(=O)C12CC3CC(C1)CC(c1ccccc1)(C3)C2 | -14.3 | -4.2 | -3.7 | -0.4% | -20.0 | 4.0 | -1.2%
Cc1nnc(-c2cnn(C)c2N)n1Cc1ccc2c(c1)OCO2 | 21.0 | 2.4 | -2.3 | 9.7% | 0.3 | 0.9 | 1.2%
Cc1cc(S(=O)(=O)NC2CCCCC2)ccc1OCC(=O)NCC1CCCO1 (stereo not given) | -4.6 | 4.5 | 2.5 | 17.9% | -4.8 | 11.0 | -1.2%
CN(C)C1CCN(C(=O)c2cccc(OC3CCN(S(=O)(=O)N(C)C)CC3)c2)C1 (stereo not given) | 2.5 | -18.4 | -2.7 | 18.0% | 15.6 | 4.7 | -2.1%
O=C(Nc1cccc(S(=O)(=O)N2CCCCC2)c1)c1ccc2c(c1)OCO2 | -9.8 | -7.9 | 0.5 | 16.2% | -10.5 | u | -2.2%
CC/C(=N\NC(=S)Nc1ccc(OC)cc1)c1ccc(OC(F)F)cc1 | 1.7 | -2.4 | -4.0 | 1.4% | -22.2 | -23.1 | 1.7%
S=c1[nH]nc([C@@H]2C[C@H]2c2ccccc2)n1-c1ccccc1 | -0.8 | 8.2 | 0.8 | -15.0% | 14.7 | -12.8 | -0.4%
O=c1cc(NCc2ccco2)[nH]c(=O)n1-c1ccc(Br)cc1 | 23.0 | -13.7 | -1.4 | -12.6% | -4.9 | -4.7 | 2.5%[38.3 µM]

Rewritten field by field: 4 of the compounds above
SMILES: Cc1cc(S(=O)(=O)NC2CCCCC2)ccc1OCC(=O)NCC1CCCO1 (stereo not given)
  TRPV1 PAM: -4.6
  D2 potentiator: 4.5
  D2 agonist: 2.5
  Sfp inh: 17.9%
  CtBP-E1A inh: -4.8
  Six1-Eya2 blk: 11.0
  PINK1 modulator: -1.2%

SMILES: CN(C)C1CCN(C(=O)c2cccc(OC3CCN(S(=O)(=O)N(C)C)CC3)c2)C1 (stereo not given)
  TRPV1 PAM: 2.5
  D2 potentiator: -18.4
  D2 agonist: -2.7
  Sfp inh: 18.0%
  CtBP-E1A inh: 15.6
  Six1-Eya2 blk: 4.7
  PINK1 modulator: -2.1%

SMILES: O=C(Nc1cccc(S(=O)(=O)N2CCCCC2)c1)c1ccc2c(c1)OCO2
  TRPV1 PAM: -9.8
  D2 potentiator: -7.9
  D2 agonist: 0.5
  Sfp inh: 16.2%
  CtBP-E1A inh: -10.5
  Six1-Eya2 blk: u
  PINK1 modulator: -2.2%

SMILES: CC/C(=N\NC(=S)Nc1ccc(OC)cc1)c1ccc(OC(F)F)cc1
  TRPV1 PAM: 1.7
  D2 potentiator: -2.4
  D2 agonist: -4.0
  Sfp inh: 1.4%
  CtBP-E1A inh: -22.2
  Six1-Eya2 blk: -23.1
  PINK1 modulator: 1.7%

(further entries)
SMILES | TRPV1 PAM | D2 potentiator | D2 agonist | Sfp inh | CtBP-E1A inh | Six1-Eya2 blk | PINK1 modulator
CCN(CC)S(=O)(=O)c1ccc(NC(=O)CCC2CCCCC2)cc1 | -19.1 | -30.9 | -4.8 | 2.7% | x | 8.4 | 14.5%
O=C(Nc1ccc2oc(=O)ccc2c1)c1ccc(-c2ccc(Cl)cc2)o1 | -0.3 | -3.2 | 0.2 | -9.8% | 3.7 | 9.4 | 0.7%
CCOc1ccc(NC(=S)NN2C(C)CCCC2C)cc1 (stereo not given) | 5.8 | -10.8 | -3.9 | -4.2% | 3.5 | 2.2 | 0.8%
CCCCN(C)C1=CC2=CC(=C(C#N)C#N)CCC2CC1 (stereo not given) | -2.2 | 12.7 | 10.3 | -11.0% | 12.8 | 22.3 | 12.6µM*
Cc1ccc(NC(=O)c2ccc(F)cc2F)cc1 | x | -8.4 | -2.5 | x | 2.8 | 6.6 | -0.4%
CC[C@]1(C(=O)OC)[C@H]2C(=O)N(C)C(=O)[C@H]2[C@H]2CN=C(SCc3ccc(C#N)cc3)N21 | x | -3.0 | 0.0 | x | -3.1 | 11.7 | -2.0%
COc1ccc(/C=C2\SC(=O)N(CCNC(=O)C3=COCCO3)C2=O)cc1 | 10.2 | -13.2 | -4.3 | x | 3.4 | 20.9 | 13.9%
CCCOC(=O)/C(=C\c1ccc([N+](=O)[O-])o1)NC(=O)c1ccccc1 | -8.1 | 18.3 | 9.3 | 14.3% | 5.8 | 1.2 | 0.7%
O=C1NCCCC1C(=O)N/N=C/c1ccc(Cl)cc1 (stereo not given) | -3.8 | -3.0 | -5.8 | 8.1% | 6.6 | 12.1 | 0.4%
COc1ccccc1-n1cnnc1SC1CCOC1=O (stereo not given) | 28.4 | -4.6 | 0.5 | 10.8% | 3.6 | 0.0 | -1.1%
Cc1sc(-n2c(C)cc(/C=C3\SC(=S)NC3=O)c2C)c(C#N)c1C | 7.8 | -11.3 | -4.4 | -10.3% | -9.4 | u | 11.2%[38.3 µM]
Cc1ccc(CSc2ncnc3c2cnn3Cc2ccccc2)cc1C | -42.4 | 22.6 | -0.5 | 0.6% | -4.3 | -0.3 | 4.2%
